# T cruzi repl: blocks replication of Trypanosoma cruzi; T. cruzi beta-gal in NIH3T3, luminescence, 90 h; inhibition, % (concentration not given with the values); hit rate 1.4% among 300,000; AID 1885;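 active = mean inhibition across valid replicates above about 55%, limit read from the data; inconclusive = mean below that limit but half or more replicates reach it; inactive = mean below it, under half of replicates reach it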;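 also: signal also drops with host cell toxicity which is not excluded here; 0% = plate median of DMSO wells and 100% = zero luminescence signal; higher percent means less beta-gal luminescence so fewer parasites; stock transfer was 50 nL into about 50 µL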
# Beta apoptosis: blocks beta cell apoptosis; INS-1E cytokine-induced death, ATP luminescence, 48 h; percent of positive-control rescue, neutral wells zero; protection from apoptosis, % (concentration not given with the values); hit rate 0.8% among 300,000;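 active = all replicates at 75% or more, or half of them and the mean; inconclusive = half reach 75% but not the mean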;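 also: 0% = cytokine-treated negative control wells and 100% = positive control rescue; higher means more ATP so stronger rescue from cytokine killing; wells of about 40 µL received 100 nL stock; the first replicate is given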
# Ecoli rRNA inh: inhibits bacterial ribosomal RNA function over humanized ribosomes. E. coli WT GFP vs humanized-ribosome RFP mutants, fluorescence, 24 h; hits give low values; DMSO median 0, no signal -100. GFP signal change (wild-type ribosome), % (no concentration beside the values). hit rate 1.6% among 350,000. AID 720706;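 active = significant combined selectivity score with lowered wild-type GFP, culture density cut under 30%, mutant RFP and density less affected; inactive = any of these conditions unmet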; also: one replicate is shown; some compounds called inactive have numbers as strong as hits
# MLL AF4-AF9 inh: blocks AF4 peptide binding to human AF9 | AlphaScreen, biotin-AF4 peptide binding to FLAG-AF9 | hit rate 0.47% among 350,000 | AID 651704 | inhibition, % at 10 µM | P42568;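 active = every replicate reaching a set inhibition limit, whatever the replicate mean, cut at about 25% in these data; inconclusive = mean inhibition reaches that limit but some replicates miss it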;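 also: 0% = plate neutral control median and 100% = total signal loss; the record names both 10 and 1 µM as test concentration; the first replicate is given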
# Target sequence (P42568 whole entry, looked up): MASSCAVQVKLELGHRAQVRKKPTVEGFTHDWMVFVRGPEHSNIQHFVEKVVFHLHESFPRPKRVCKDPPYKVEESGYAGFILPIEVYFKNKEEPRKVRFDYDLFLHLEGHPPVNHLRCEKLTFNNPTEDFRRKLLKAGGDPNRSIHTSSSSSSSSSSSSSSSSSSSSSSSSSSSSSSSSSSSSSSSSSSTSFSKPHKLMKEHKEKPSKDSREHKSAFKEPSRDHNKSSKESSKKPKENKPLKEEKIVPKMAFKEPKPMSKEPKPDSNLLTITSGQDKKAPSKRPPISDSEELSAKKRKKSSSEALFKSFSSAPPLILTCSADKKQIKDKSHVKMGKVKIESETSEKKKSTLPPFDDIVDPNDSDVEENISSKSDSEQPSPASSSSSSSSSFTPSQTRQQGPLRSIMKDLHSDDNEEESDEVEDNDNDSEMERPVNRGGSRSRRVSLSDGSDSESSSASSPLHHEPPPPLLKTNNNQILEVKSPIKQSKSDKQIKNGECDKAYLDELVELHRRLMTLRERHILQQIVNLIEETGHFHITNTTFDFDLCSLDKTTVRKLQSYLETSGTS
# Calb FLC: affects C. albicans growth with fluconazole; C. albicans CaCi-2 (fluconazole-resistant clinical isolate) + fluconazole, Alamar Blue growth, 48 h; growth inhibition, % (test concentration not listed); hit rate 0.57% among 300,000; AID 1979;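 active = most replicates above 75%; inconclusive = exactly half above 75%; inactive = most below 75%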;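 also: all wells also contain fluconazole at 8 µg/ml as a sub-toxic cotreatment; 0% = median of DMSO wells and 100% = median of geldanamycin control wells; wells of about 8 µL received 7.5 nL stock; the first replicate is given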
# RanGTP-Imp inh: inhibitors of RanGTP-importin-beta interaction, primary screen, biochemical, FRET, CFP-Ran, YFP-importin-beta, homogeneous; cell-free CFP-Ran/YFP-importin-beta FRET ratio; inhibition, % (concentration not given with the values); hit rate 1.1% among 300,000;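 active = most replicates above 15%; inconclusive = exactly half above 15%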;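 also: 0% = DMSO wells and 100% = Ran loaded with GDP instead of GTP; wells of about 40 µL received 100 nL stock; the first replicate is given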
# Bfl-1 A1 inh: inhibitors of the anti-apoptotic protein A1, read as caspase activation | MEF A1-2A-BIM cells, Caspase-Glo 3/7 luminescence, 3 h; percent of clofoctol response, vehicle zero | hit rate 0.066% among 330,000 | caspase activation, % (no concentration beside the values);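 active = over half of replicate activation scores above 10%, or exactly half above 10 with the replicate mean above 10; inconclusive = replicate mean below 10 yet half the replicates above 10; inactive = over half of replicates below 10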;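 also: wells of about 30 µL received 50 nL stock; many hits fall short of the cut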
# Vif A3G: inhibitors of Vif binding to APOBEC3G peptide, primary screen, biochemical, TR-FRET, GST-Vif 1-94, biotin-A3G peptide, dose response retest (AID 1117319); inhibition, %; hits with a dose series show IC50 in µM; TR-FRET GST-Vif / biotin-A3G peptide binding; higher % means a stronger effect; test concentration not given here; strong numbers were not always called active; hit rate 0.57% among 260,000;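 active = above the screen mean plus three standard deviations and confirmed in dose response; inconclusive = results disagree or hit not tested in dose response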;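 also: Vif residues 1-94 fused to GST binding biotinylated APOBEC3G peptide 110-148; 0% = full assay without inhibitor and 100% = GST in place of GST-Vif; retest series ran down from 100 µM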
# Ecoli rRNA inh OD600: also measured in Ecoli rRNA inh; calls as there; OD600 change, %; measured here: OD600 growth;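 optical density of the mix in the first replicate; 0 = DMSO median and -100 = no signal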
# Ecoli rRNA inh RFP: further read-out of Ecoli rRNA inh, marked with its call; RFP signal change, %; measured here: RFP humanized mutant strains;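 first replicate; 0 = DMSO median and -100 = no signal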
# Active calls of the source: *; ? = inconclusive; nt = not tested or not shown. Not all compounds are listed (hit frequency here may not be typical).
smiles,T cruzi repl,Beta apoptosis,Ecoli rRNA inh,Ecoli rRNA inh OD600,Ecoli rRNA inh RFP,MLL AF4-AF9 inh,Calb FLC,RanGTP-Imp inh,Bfl-1 A1 inh,Vif A3G
CC(C)CC(=O)N1CCN(S(=O)(=O)c2ccccc2)CC1,-6,2,nt,nt,nt,nt,8,?,0.4,4%
Cc1occc1C(=O)NNC(=S)NCc1ccc(Cl)cc1,-36,-10,-15,-10,0.7,0.0,16,1.6,-0.5,-2%
N#C/C(=C/c1ccc(OCc2ccc(C(=O)O)cc2)c(Br)c1)c1cccc(F)c1,-30,7,-27*,-18*,-5.4*,0.0,26,11,-1.1,12%
Cc1nnc(NC(=O)CCC(=O)N2CCC(C)CC2)s1,-15,nt,3,3,-1.5,2.9,-9,-2.1,0.5,5%
CN1CCN(C(=O)CN(C)S(=O)(=O)c2ccc(F)cc2)CC1,6,6,13,17,-1.7,-0.9,1,3.9,0.0,3%
COc1cc(SC)ccc1C(=O)OCC(=O)N1CCCC1,-2,4,9,8,-1.5,0.5,-13,-0.7,0.9,nt
Cc1ccc(NC(=O)Cc2nnc(SCC(=O)Nc3ccccc3)n2C)cc1,7,-11,nt,nt,nt,nt,5,-0.7,-0.1,6%
COc1ccc(-c2ncncc2-c2ccc(Cl)cc2)c(O)c1,11,-8,-8,-16,-1.8,-3.8,1,1.1,-0.5,nt
Cn1c(CCc2ccccc2)nnc1SCC(=O)N1CCCC1,-12,5,nt,nt,nt,nt,-2,3.5,0.3,0%
CSc1nc(N)c(C#N)c(-c2ccccc2Cl)c1C#N,7,-6,nt,nt,nt,nt,4,-1.8,0.9,67%
Cc1ccc(OCCC(=O)NNC(=O)c2nn(C)c(=O)c3ccccc23)cc1,nt,-2,2,3,0.4,-4.9,nt,nt,0.0,-11%
COC(=O)c1ccccc1S(=O)(=O)N1Cc2cc([N+](=O)[O-])ccc2Oc2ccccc21,5,2,nt,nt,nt,nt,8,5.5,-0.2,0%
CCC(=O)Nc1cccc(C(=O)/C=C/c2cccs2)c1,2,-2,-25,-31,-3.1,5.3,-25,0.1,-0.4,nt
CCOC(=O)Cc1c(C)nc2c(-c3ccc(Cl)cc3)c[nH]n2c1=O,1,6,nt,nt,nt,nt,-2,-5.0,-0.3,11%
COC(=O)[C@@]12CCCCN1[C@H](c1ccc(-c3cccc(Cl)c3)cc1)[C@@H]1C(=O)N(C)C(=O)[C@@H]12,nt,9,8,15,1.1,-3.5,nt,nt,0.5,nt
COc1ccc(N(C(=O)Cn2nnc(-c3ccc(Cl)cc3)n2)C(C(=O)NCC2CCCO2)c2ccncc2)cc1 (stereo not given),9,-6,13,11,0.8,-0.3,-9,0.0,-0.4,33%
Cc1ccc(N(CCC(=O)Nc2nnc(C3CC3)s2)S(=O)(=O)c2ccccc2)cc1,-11,-15,-16,-4,1.3,-53,21,2.0,-0.1,nt
Cc1cc(C)cc(NC(=O)Cn2nnc(C(=O)NCCc3ccccc3)c2N)c1,8,nt,3,9,-0.5,1.2,-13,1.2,1.1,-3%
CCOC(=O)NC(NC(=O)OCC)C(=O)c1ccc(F)cc1,-1,-4,nt,nt,nt,nt,-25,-1.5,1.0,0%
CC1CCCCC1NC(=O)CSc1ccc([N+](=O)[O-])cc1 (stereo not given),-12,-2,-5,2,-7.1,-1.7,-16,0.2,-0.1,4%

# (cont.)
smiles,T cruzi repl,Beta apoptosis,Ecoli rRNA inh,Ecoli rRNA inh OD600,Ecoli rRNA inh RFP,MLL AF4-AF9 inh,Calb FLC,RanGTP-Imp inh,Bfl-1 A1 inh,Vif A3G
Clc1ccc(CNc2ccc(CNc3ncn[nH]3)cc2)c(Cl)c1,-11,-4,-10,1,0.2,-7.5,-20,-1.5,-0.1,71%
O=C(c1ccccc1)c1ccccc1N1C(=O)C=CC1=O,-21,-5,1,-5,1.0,5.5,-10,1.3,-1.7,-14%
COc1cccc(C(=O)NC2CCN(CC(=O)Nc3nccs3)CC2)c1,-15,0,nt,nt,nt,nt,6,1.4,0.8,?
Cc1c(C)c(C)c(S(=O)(=O)NCCc2ccccn2)c(C)c1C,12,-2,-6,-32,5.0,-0.8,-8,-1.1,1.0,nt
CC(Cl)C(=O)Nc1cc(C(C)(C)C)nn1-c1ccccc1 (stereo not given),8,nt,5,-12,-6.9,-5.3,-11,5.8,0.2,?
Cc1cc(C)c2[nH]c(=O)c(CN(Cc3ccco3)C(=O)C3CCCO3)cc2c1 (stereo not given),1,-5,nt,nt,nt,nt,0,-0.8,-0.3,9%
CCN1CCN(CCNC(=O)c2ccc(/C=C3/Sc4ccccc4N(Cc4cccc(Cl)c4)C3=O)cc2)CC1,61*,9,-49,-47,-13,nt,32,?,-0.1,nt
COCCNC(=O)CN1C(=O)c2cccc3cccc1c23,-12,-6,10,12,-0.9,-1.4,0,2.9,-1.4,nt
CCSc1sccc1C1C(C#N)=C(N)N(c2cccnc2)C2=C1C(=O)CC(C)(C)C2 (stereo not given),-6,5,nt,nt,nt,nt,8,2.8,0.5,-1%
Nc1nc(CSc2ccccn2)nc(Nc2ccccc2)n1,-3,-3,nt,nt,nt,nt,-13,2.9,0.3,-4%
CCOc1cc(NS(=O)(=O)c2ccc(OC)cc2)c(OCC)cc1NC(C)=O,4,-3,12,1,1.0,-1.5,0,-0.8,-0.2,-4%
CCOc1cc(C2C3=C(CCCC3=O)OC3=C2C(=O)CCC3)cc([N+](=O)[O-])c1O,-16,4,8,9,0.9,-4.2,11,2.9,0.2,-2%
CC1CCN(S(=O)(=O)c2ccc(NC(=O)CSc3nnnn3C)cc2)CC1,2,-2,nt,nt,nt,nt,10,-1.3,-0.3,3%
Cc1nc2ccccc2c2oc(C(=O)N3CCN(c4ccc([N+](=O)[O-])cc4)CC3)cc12,3,10,-4,9,-2.9,-0.7,-21,5.7,-0.9,-4%
CS(=O)(=O)N1CCN(c2ncccn2)CC1,-10,-4,nt,nt,nt,nt,17,-1.1,0.4,10%
CC(=O)N(CC(=O)Nc1nn(-c2ccccc2)nc1C(N)=O)Cc1ccccc1,13,-5,nt,nt,nt,nt,-16,-3.7,0.5,18%
O=C(O)C1CCCN1C(=O)Nc1ccc(Cl)cc1 (stereo not given),-6,-5,4,0,-9.0,7.9,-4,-0.7,-0.8,11%
CC1CCN(C(=O)CSc2ccc(-c3ccc4c(c3)OCCO4)nn2)CC1,-1,-3,3,8,-5.9,-3.5,-15,2.7,-0.3,nt
CC(=O)Nc1ccc(S(=O)(=O)Nc2cccc3cccnc23)cc1,-1,2,5,2,0.5,-11,5,4.4,0.4,nt
c1cnc(-c2noc(CN3CCN(C4CCCC4)CC3)n2)cn1,8,-4,11,11,-5.1,-1.6,-6,-0.2,-0.4,nt

# Continued.
smiles,T cruzi repl,Beta apoptosis,Ecoli rRNA inh,Ecoli rRNA inh OD600,Ecoli rRNA inh RFP,MLL AF4-AF9 inh,Calb FLC,RanGTP-Imp inh,Bfl-1 A1 inh,Vif A3G
CC1(O)c2ccccc2C(=O)N1Cc1ccccc1 (stereo not given),-12,3,nt,nt,nt,nt,39,?,-0.5,0%
O=C(CN(C(=O)CNS(=O)(=O)c1ccccc1)c1ccc(F)cc1)NCc1ccco1,0,5,2,7,-2.0,7.2,0,2.1,0.3,nt
COc1ccc(/C=C2/SC(c3ccc(C)cc3)=NC2=O)cc1OC,-3,18,nt,nt,nt,nt,21,3.7,0.1,2%
COCCOC(=O)C1=C(C)NC(=S)NC1c1cccs1 (stereo not given),-12,2,8,5,-0.3,-14,18,2.2,-3.0,4%
Cc1onc(-c2ccccc2Cl)c1C(=O)NCCN1CCOCC1,-2,-1,nt,nt,nt,nt,1,-0.7,0.9,?
Cc1scc(C(=O)NCc2ccco2)c1-c1ccccc1,-15,-9,nt,nt,nt,nt,-20,5.0,0.9,5%
COCC(C)NC(=O)Cc1ccc(Cl)cc1 (stereo not given),4,nt,14,11,0.3,-2.6,-8,2.6,-0.8,-4%
COc1ccccc1N1Cc2ccc(OC)c(OC)c2C1=O,-16,-10,-1,-1,-1.4,-4.0,-5,0.9,2.0,5%
Cc1nn(Cc2ccccc2Cl)c(C)c1C(=O)N(C)CC(=O)Nc1cccc(F)c1,nt,1,nt,nt,nt,1.7,nt,nt,1.1,-11%
CCOC(=O)c1sc(N2C(=O)C(O)=C(C(=O)c3ccco3)C2c2cccc([N+](=O)[O-])c2)nc1C (stereo not given),19,10,-8,-11,5.9,3.1,29,-4.9,0.5,nt
COC(=O)c1ccc(C2C(C(=O)c3ccco3)=C(O)C(=O)N2c2cc(C)on2)cc1 (stereo not given),-10,-3,1,0,-3.0,0.6,3,-1.0,0.1,nt
COc1cc2ccccc2nn1,-11,nt,3,-7,-3.5,-0.2,-2,65*,0.2,69%
CCC(C)NC(=O)CN(c1cc(Cl)ccc1OC)S(C)(=O)=O (stereo not given),-8,-1,nt,nt,nt,nt,-2,3.5,0.1,-2%
Cn1c(SCC(=O)NCc2ccccc2)nc2c([nH]c3ccccc32)c1=O,2,-2,nt,nt,nt,nt,-5,0.4,-0.2,2%
OCCC1CN(Cc2cccn2-c2ncccn2)CCN1Cc1ccccc1 (stereo not given),10,nt,12,0,9.7,-0.4,-19,3.2,-0.1,?
CCc1nnc(NC(=O)C2CCCN(c3nc(C)cc(C)n3)C2)s1 (stereo not given),-12,-5,nt,nt,nt,nt,-8,3.2,0.5,-2%
CCOC(=O)C1=C(C)N=C2SC(C)C(=O)N2C1c1ccc(C(=O)OC)cc1 (stereo not given),12,-3,nt,nt,nt,nt,3,0.8,0.5,1%
COc1ccc(NC(=S)N(C(C)C)C2CCN(C(C)C)CC2)cc1Cl,1,-1,nt,nt,nt,nt,-6,-6.2,-0.6,nt
CCOC(=O)c1c(NC(=O)CSc2nc3cc(Cl)ccc3s2)sc(C(C)=O)c1C,-5,8,6,-5,-3.3,-10,-9,0.3,-0.6,nt
CC(=O)NC12CC3CC(C1)CC(C(=O)Nc1nc4ccc(S(C)(=O)=O)cc4s1)(C3)C2,-3,-4,-1,-4,0.9,-0.2,-1,-2.0,0.3,nt

# (cont.)
smiles,T cruzi repl,Beta apoptosis,Ecoli rRNA inh,Ecoli rRNA inh OD600,Ecoli rRNA inh RFP,MLL AF4-AF9 inh,Calb FLC,RanGTP-Imp inh,Bfl-1 A1 inh,Vif A3G
CCN(CC(=O)Nc1ccccc1C(F)(F)F)C(=O)CCS(=O)(=O)c1ccc(C)cc1,-9,-7,4,14,-0.8,3.8,2,-2.8,-0.2,-5%
O=C(O)c1cc(=O)c2cc(Cl)ccc2o1,-20,2,nt,nt,nt,nt,-1,-1.7,-0.7,6%
CCOC(=O)c1cccc(NC(=O)CSc2nnc(-c3ccoc3C)n2CCOC)c1,-10,0,nt,nt,nt,nt,-8,0.7,0.8,-2%
Cc1nc([N+](=O)[O-])cn1CCC#N,-12,-5,15,2,-2.6,-1.8,-8,4.1,0.6,4%

# High-throughput results (PubChem)
